miR-21 reporter = raises the signal of a miR-21 reporter; HeLa miR-21 FLuc reporter, luciferase, 48 h; Potency, µM (titrated, usually from 38.3 µM), for inactives: top-dose reporter change, positive = more light; 340,000 tested, under 10 active; active = well fitted rising curve with a large enough effect; inconclusive = small, poorly fitted or top-dose-only effect; inactive = no such curve, though single readings can be large or run the other way;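 note: % of control where 0% means no effect; miR-21 action dims this reporter so a rising signal means less miR-21 action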
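HeLa cells stably expressing CMV-driven firefly luciferase with a downstream miR-21 binding sequence, endogenously expressing miR-21, were treated with titrations (up to about 40uM final) for 48 hours at 37 degree Celsius. Luciferase luminescence was read after lysis.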
Rango dissoc inh = inhibitors of RanGTP-induced Rango-importin beta complex dissociation; Biochemical FRET Rango-importin beta, RanGTP-induced dissociation; AID 540253; 0.071% of 340,000 active; O95149+P62826; Potency, µM (titrated, usually from 46.1 µM), without a hit: at the highest dose activity change, negative = inhibition; active means falling FRET ratio curve, often poorly fitted, with flat reads before Ran was added; inconclusive means other falling curves, or compound fluorescence or quenching; inactive means flat or rising ratio curve;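 note: potency is the fitted concentration of half-maximal effect; % of control where 0% means no effect; nearly all actives have a fitted effect of over 45% in size; -100% = wells without RanGTP and RCC1; the record marks most hits as doubtful in a second field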
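Rango (0.1 uM)–importin beta (0.25 uM) complex; RanGTP-RCC1 trigger; 45 min RT; CFP/YFP FRET read.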
GLA inh pH 4.5 = blocks human alpha-galactosidase A at pH 4.5; P06280; 230,000 tested, under 10 active; activity change, negative = inhibition, % at 105 µM; purified enzyme, 4-MU-alpha-Gal fluorescence, pH 4.5; inconclusive = small, poorly fitted or top-dose-only inhibition, or a rising curve; inactive = flat fitted curve, though single readings scatter; no compound was filed as active;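 note: 0% = full activity with enzyme and -100% = basal without enzyme; dose as in the result columns while the protocol names 77 µM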
Rango complex inh = prevents formation of the Rango-importin beta complex; 0.031% of 340,000 active; Rango CFP/YFP FRET sensor + importin beta, 45 min; Potency, µM (top dose mostly 92.2 µM), for inactives: top-dose inhibition of complex formation; active = rising FRET ratio curve, often small or poorly fitted; inconclusive = mostly compound fluorescence or quenching in the first reads; inactive = flat curves in all reads;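 note: potency is the fitted concentration of half-maximal effect; 0% = DMSO wells and 100% = buffer wells lacking importin beta; nearly all actives have a fitted effect of over 15% in size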
Target sequence (Q14974 whole entry, looked up): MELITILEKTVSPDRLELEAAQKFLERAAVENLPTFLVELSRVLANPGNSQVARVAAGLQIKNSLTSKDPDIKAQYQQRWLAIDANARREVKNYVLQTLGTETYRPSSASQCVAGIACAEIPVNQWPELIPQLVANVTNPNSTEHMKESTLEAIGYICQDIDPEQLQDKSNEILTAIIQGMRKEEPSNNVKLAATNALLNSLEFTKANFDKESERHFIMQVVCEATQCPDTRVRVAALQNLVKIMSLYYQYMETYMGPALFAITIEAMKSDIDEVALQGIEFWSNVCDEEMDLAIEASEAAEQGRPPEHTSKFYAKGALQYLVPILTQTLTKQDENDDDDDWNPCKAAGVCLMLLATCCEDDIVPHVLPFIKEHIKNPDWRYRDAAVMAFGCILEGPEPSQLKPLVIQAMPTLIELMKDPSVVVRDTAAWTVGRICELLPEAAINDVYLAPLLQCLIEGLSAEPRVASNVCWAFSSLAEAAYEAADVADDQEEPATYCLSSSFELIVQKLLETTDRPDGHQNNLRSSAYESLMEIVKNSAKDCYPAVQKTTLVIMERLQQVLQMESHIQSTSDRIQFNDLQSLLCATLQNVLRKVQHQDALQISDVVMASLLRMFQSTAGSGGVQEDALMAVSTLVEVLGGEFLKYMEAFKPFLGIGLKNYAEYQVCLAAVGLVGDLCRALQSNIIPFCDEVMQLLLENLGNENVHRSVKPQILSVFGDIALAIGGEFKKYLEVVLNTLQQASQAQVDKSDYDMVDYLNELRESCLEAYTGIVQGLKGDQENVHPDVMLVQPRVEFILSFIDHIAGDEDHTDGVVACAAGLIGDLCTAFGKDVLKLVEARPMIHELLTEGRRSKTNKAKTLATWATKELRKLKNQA
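Inhibition scored from the CFP 486 nm/YFP 530 nm FRET ratio 45 min after adding 0.125 microM importin beta to 50 nM Rango biosensor preincubated 5 min with compound (room temperature, PBS with DTT, Tween-20, BSA). No-importin wells as positive control.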
Numbers without * were called inactive; ? = inconclusive; . = not tested or not shown; [ ] = another dose, or the depositor's remark.

Sequence of screens – miR-21 reporter | Rango dissoc inh | GLA inh pH 4.5 | Rango complex inh
1: COc1ccc(NC(=O)c2cc(-c3cccs3)on2)c(OC)c1
    -3% | 0% | . | 6.6%
2: O=C(c1ccco1)N1CCN(S(=O)(=O)Cc2ccccc2Cl)CC1
    -8% | 0% | 5 | 0.5%
3: CC(C)C[C@H](NC(=O)C1CC(=O)N(c2ccc(F)cc2)C1)C(=O)N1CCCCC1 (some centres undefined)
    2% | -12% | . | 3.3%
4: COc1ccc(CC(=O)NN2C(=O)c3ccccc3C2=O)cc1
    0% | 3% | -6 | 4.2%
5: O=C(Cc1csc(-c2ccccc2)n1)NCc1ccccc1F
    -37% | . | -9 | .
6: Nc1c(C(=O)NCc2ccc3c(c2)OCO3)nnn1Cc1cccc(F)c1
    -14% | 5% | -3 | -1.8%
7: O=C(Nc1cccc(S(=O)(=O)N2CCOCC2)c1)[C@@H]1CCCN1S(=O)(=O)c1ccc(Cl)cc1
    0% | -5% | 4 | -1.9%
8: Cn1c(=O)c2c(SCC(=O)NCC3CCCO3)nc(CC(C)(C)C)nc2n(C)c1=O (centres undefined)
    -10% | 12% | . | -1.6%
9: COC(=O)c1c(-c2ccc(C)cc2)csc1NC(=O)c1c(-c2ccccc2)noc1C
    27% | . | -7 | .
10: COC(=O)c1ccc(C(=O)NN)cc1
    -8% | -9% | -9 | 0.2%
11: O=S(=O)(CCc1nc2ccccc2o1)c1ccc2ccccc2c1
    1% | -11% | 2 | -1.9%
12: Cc1ccccc1OCC(=O)OCC(=O)N1CCc2ccccc21
    . | 7% | . | 2.9%
13: O=C(CCNS(=O)(=O)c1cccc2nonc12)NCc1cccs1
    -2% | -6% | 0 | -4.4%
14: CCCCCN1C=CC(=C2C(=O)c3ccccc3C2=O)C=C1
    ? | -7% | -4 | ?
15: CCCn1c(=O)c2c(nc3n2CCCN3CCc2ccc(OC)c(OC)c2)n(C)c1=O
    14% | -1% | . | 1.8%
16: O=[N+]([O-])c1cccc(COc2ccc(CN3CCCC3)cc2)c1
    . | 0% | . | 0.2%
17: O=C(Nc1nc2ccccc2c(=O)s1)c1ccco1
    -6% | 6% | -23 | 0.0%
18: CCCCC(NC(=O)c1ccc(C#N)cc1)C(=O)NCCC (centres undefined)
    . | ? | . | 0.8%
19: Cc1ccc(Cc2nc(-c3cccnc3)no2)cc1
    -51% | 4% | -6 | -0.5%
20: COc1cc(-c2ccc3oc(-c4ccsc4)c(C#CC4(O)CCCCC4)c3c2)cc(OC)c1OC
    . | 4% | . | 1.4%

One compound at a time (already shown). Screens in order: miR-21 reporter	Rango dissoc inh	GLA inh pH 4.5	Rango complex inh
Entry for `CCCn1c(=O)c2c(nc3n2CCCN3CCc2ccc(OC)c(OC)c2)n(C)c1=O` → 14%	-1%	.	1.8%
Entry for `Nc1c(C(=O)NCc2ccc3c(c2)OCO3)nnn1Cc1cccc(F)c1` → -14%	5%	-3	-1.8%
Entry for `O=C(CCNS(=O)(=O)c1cccc2nonc12)NCc1cccs1` → -2%	-6%	0	-4.4%
Entry for `CCCCCN1C=CC(=C2C(=O)c3ccccc3C2=O)C=C1` → ?	-7%	-4	?
Entry for `COC(=O)c1ccc(C(=O)NN)cc1` → -8%	-9%	-9	0.2%

Other entries
Sequence of screens – miR-21 reporter | Rango dissoc inh | GLA inh pH 4.5 | Rango complex inh
21: O=C(Cn1ncc2c3ccccc3n(Cc3ccccc3)c2c1=O)NCCCN1CCCC1
    5% | 13% | . | -0.2%
22: CS(=O)(=O)c1ccc(C(=O)Nc2ccc(S(=O)(=O)N3CCCCC3)cc2)cc1
    . | -4% | . | 2.1%
23: O=C(NCc1ccccc1)c1ccc(CN2CCC(Cc3ccccc3)CC2)cc1
    9% | -10% | . | -1.2%
24: N#CCSc1nnc(CNc2cccc(Cl)c2)o1
    -1% | 9% | 4 | 2.7%
25: CCN1C(=O)CS/C1=N\c1nccs1
    1% | 6% | 2 | 0.5%
26: CCN(CC)S(=O)(=O)c1ccc(OC)c(NC(=S)Nc2ccc(C)c(C)c2)c1
    -20% | 13% | -2 | 0.6%
27: CCCCNC(=O)[C@@H]1CSC2c3ccc(OC)c(OC)c3C(=O)N21 (some centres undefined)
    2% | 1% | . | -4.5%
28: CCn1c(SCC(=O)c2ccc(NC(C)=O)c(OC)c2)nnc1-c1ccc(NS(C)(=O)=O)cc1
    -10% | 0% | 3 | 5.6%
29: N#C/C(=C\Nc1ccc(Cl)cn1)S(=O)(=O)c1ccccn1
    0% | -5% | -1 | -3.8%
30: O=C(Nc1ccon1)Nc1cc(Cl)ccc1Cl
    -7% | 9% | . | 1.8%
31: O=C(O)CCS(=O)(=O)c1nc(-c2cccs2)cc(C(F)(F)F)n1
    -2% | -2% | 3 | 5.8%
32: CCOC(=O)CNC(=S)N(CCCN1CCCC1)Cc1cccs1
    -6% | 7% | 4 | -1.2%
33: Cc1ccc2c(c1)c1nnc(SCC(=O)N3CCCc4ccccc43)nc1n2CC(=O)O
    -57% | 4% | -6 | 1.6%
34: CC(=O)Nc1cccc(NC(=O)c2cccc(OCc3ccccc3)c2)c1
    15% | -8% | . | -1.8%
35: Cc1ccc(NC(=O)N2CCCCCC2)cc1C
    -51% | 12% | . | 2.5%
36: CCOC(=O)CCc1c(C)c(C#N)c2nc3ccccc3n2c1-n1ccnc1
    -5% | -12% | 13 | -1.7%
37: CCCC(=O)Nc1ccccc1NC(=O)C1CCCCC1
    -6% | 0% | 1 | -4.2%
38: CCOc1cc(/C=N/N=C2/NC(=O)C(CC(=O)O)S2)ccc1OCc1ccccc1Cl (centres undefined)
    -15% | 27% | 8 | -1.1%
39: O=C(Cn1nnc2ccccc21)OCC(=O)c1ccc(Cl)cc1
    -3% | . | 6 | .
40: Cc1ccc(S(=O)(=O)/N=C2/NC(=O)/C(=C\c3ccco3)S2)cc1
    -11% | -2% | 0 | -0.9%
41: Cn1c(CN2CCN(CC#N)CC2)c(C#N)c2ccccc21
    -5% | 8% | -5 | 0.5%
42: Cc1ccccc1NC(=O)c1nn(-c2ccc(F)c(F)c2)ccc1=O
    -6% | 11% | 2 | 0.6%
43: O=C1NC[C@H](Cc2ccccc2)N(CC2CCCCC2)C1=O
    -3% | -12% | 8 | 0.7%
44: O=S(=O)(CCn1cccc1)CCn1cccc1
    -5% | -15% | -4 | 0.1%
45: COc1cccc(NC(=O)CCNC(=O)C2CCN(S(=O)(=O)c3ccc(F)cc3)CC2)c1
    1% | -2% | . | -1.5%
46: Cc1cc(Nc2ccccc2)nc(N)n1
    -14% | 2% | 6 | 1.8%
47: COc1ccc(CCN(Cc2cccs2)S(=O)(=O)c2ccc(-n3cnnn3)cc2)cc1OC
    0% | 1% | -2 | 3.5%
48: Cc1cccc(NC(=S)NC(=O)c2cc(-c3ccccc3)nc3ccccc23)c1
    -3% | -3% | -4 | 0.8%
49: Cc1ccc(S(=O)(=O)Oc2ccc(/C=N/N=C3/NC(=O)C(CC(=O)O)S3)cc2)cc1 (centres undefined)
    1% | 9% | 3 | 0.1%
50: O=C1N2CN(C(c3ccccc3)c3ccccc3)CN=C2SC1(CO)CO
    -3% | 9% | 5 | 1.6%
51: O=C(CS(=O)(=O)c1ccc2ccccc2c1)Nc1ccccc1Cl
    -7% | -26% | 2 | -6.7%
52: O=c1cc(CN2CCc3ccccc32)nc2sccn12
    -2% | -15% | -1 | 8.1%
53: CCN(CC)CCCNC(=O)c1ccc2c(=O)n(Cc3ccc4c(c3)OCO4)c(=S)[nH]c2c1
    -8% | 4% | -7[21.1 µM] | 2.4%
54: COC(=O)N/N=C/c1cn(CCOc2ccc(OC)cc2)c2ccccc12
    0% | -17% | . | -0.1%
55: Cc1cc(N2CCOCC2)n2nc(C(F)(F)F)c(-c3ccccc3)c2n1
    -3% | -7% | . | -3.6%
56: Cc1ccc(NC(=O)CCc2nc3ccccc3[nH]2)cc1C
    0% | -1% | 2 | 0.5%
57: CSc1ccccc1NC(=O)COC(=O)Cn1cc(C(F)(F)F)ccc1=O
    . | -1% | . | -0.3%
58: C/C(CC(=O)Nc1c(Cl)cccc1C(F)(F)F)=N\NC(=O)c1cnccn1
    . | 7% | . | -3.4%
59: CC(NC(=O)c1cccc(S(=O)(=O)N(C)C)c1)C1CC2CCC1C2 (centres undefined)
    -6% | 18% | . | 1.0%
60: FC(F)(F)c1nnc2c(Sc3ccccc3)nc3ccc(Cl)cc3n12
    1% | -2% | -8 | 8.4%

(continued)
No. | mol | miR-21 reporter | Rango dissoc inh | GLA inh pH 4.5 | Rango complex inh
61 | Cc1ccc(-n2ccc(=O)c(C(=O)Nc3ccc(S(=O)(=O)Nc4nccs4)cc3)n2)cc1 | -8% | -1% | . | -2.5%
62 | C(#Cc1ccc(C#CCN2CCCC2)cc1)CN1CCCC1 | 1% | -3% | -5 | -3.9%
63 | Cc1cccc(C)c1NC(=O)NC1(C(=O)NCCN2CCOCC2)CCCCC1 | 1% | 2% | -7 | -5.0%
64 | O=[N+]([O-])c1ccc(N/N=C/c2sc(N3CCOCC3)nc2-c2ccccc2)c(S(=O)(=O)Nc2ccc(Cl)cc2)c1 | 0% | ? | -6 | 12%
65 | COCCn1c(=O)[nH]c2cc(C(=O)NCCN3CCN(c4ccc(OC)cc4)CC3)ccc2c1=O | -3% | 8% | 2 | 0.4%
66 | Cc1noc(NS(=O)(=O)c2ccc(NC(=O)c3cc(S(=O)(=O)Nc4ccc(F)cc4)ccc3Cl)cc2)c1C | . | -8% | . | -0.5%
67 | CCNC(=S)NNC(=O)c1cc(-c2cccnc2)nc2ccccc12 | -4% | -9% | 0 | -1.8%
68 | COCCn1nnnc1C(c1ccc2ncccc2c1)N1CCc2ccccc21 (centres undefined) | -19% | 0% | 1 | -4.0%
69 | CCC(=O)O/N=C(\N)c1ccc(Oc2cc(C)c(Cl)c(C)c2)c([N+](=O)[O-])c1 | -4% | 9% | 0 | 6.3%
70 | CCc1ccc(N2CC(C(=O)OCC(=O)Nc3ccccc3C)CC2=O)cc1 (centres undefined) | . | ? | . | 0.8%
71 | COc1ccc(-n2ccc(=O)c(C(=O)Nc3ccc(S(=O)(=O)Nc4nccs4)cc3)n2)cc1 | 0% | 14% | . | -0.1%
72 | O=C(O)C1CC=CCC1C(=O)NCCCCc1ccccc1 (centres undefined) | -1% | 17% | 2 | 0.5%
73 | COc1cc(O)c(C(CC(=O)N2CCOCC2)c2cc(OC)c(OC)c(OC)c2)c(OC)c1 (centres undefined) | 1% | -14% | 2 | 2.1%
74 | COc1ccc(N2C(=O)/C(=C\c3ccco3)N=C2SCC(=O)NC(C)C)cc1Cl | -12% | 17% | -2 | -3.7%
75 | CC(Sc1nn(-c2ccc(F)cc2)c(=S)s1)C(=O)c1c(N)n(C)c(=O)n(C)c1=O (centres undefined) | . | 4% | . | 0.7%

Entries by screen from above:
Entries 53–64 in miR-21 reporter: -8%, 0%, -3%, 0%, ., ., -6%, 1%, -8%, 1%, 1%, 0%
Entries 53–64 in Rango dissoc inh: 4%, -17%, -7%, -1%, -1%, 7%, 18%, -2%, -1%, -3%, 2%, ?

Following part
No. | mol | miR-21 reporter | Rango dissoc inh | GLA inh pH 4.5 | Rango complex inh
76 | CCCNS(=O)(=O)c1ccc(CCC(=O)N2CCCCC2)cc1 | -11% | -12% | 7 | -0.5%
77 | N#Cc1cccc(NCC(=O)Nc2cccc(S(=O)(=O)N3CCCCC3)c2)c1 | . | 15% | . | -4.6%
78 | CN1CCN(C(=O)C2CCN(S(=O)(=O)c3ccccc3[N+](=O)[O-])CC2)CC1 | . | 3% | . | 1.7%
79 | COc1ccccc1CNC(=O)COC(=O)Cc1cccc(F)c1 | . | -2% | . | -0.8%
80 | CCc1ccc(OCC(=O)NNC(=O)Cc2ccc(S(=O)(=O)N3CCOCC3)s2)cc1 | . | -21% | . | -4.5%
81 | O=C(O)C1CCCCC1C(=O)Nc1ccc(S(=O)(=O)N2CCCCC2)cc1 (centres undefined) | -2% | 12% | . | 2.9%
82 | Cc1ccc([N+](=O)[O-])cc1Nc1nc(N2CCCC2)nc(N2CCCC2)n1 | 0% | 16% | . | 0.9%
83 | O=C(Cc1c(Cl)cccc1Cl)Nc1ccc(S(=O)(=O)Nc2ncccn2)cc1 | 1% | -9% | . | ?
84 | CCn1c(Cc2ccccc2)nnc1SCC(=O)Nc1cc(C)on1 | 0% | 20% | -10 | ?
85 | Nc1ccc(Oc2cc(N)cc(Oc3ccccc3)c2)cc1 | -65% | -1% | . | -1.5%

Only part of the results is shown; the hit share may differ from the screen's.
